# miR-21 FLuc: raises the signal of a miR-21 reporter; HeLa miR-21 FLuc reporter, luciferase, 48 h; Potency, µM (highest dose often 38.3 µM), for inactives: at the highest dose reporter change, positive = more light; 340,000 tested, under 10 active; active = well fitted rising curve with a large enough effect; inconclusive = small, poorly fitted or top-dose-only effect; inactive = no such curve, though single readings can be large or run the other way;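 also: % of control where 0% means no effect; miR-21 action dims this reporter so a rising signal means less miR-21 action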
#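 Compounds were titrated across several concentrations (up to approximately 40 uM) and incubated 48 hours with HeLa miR-21-FLuc reporter cells (miR-21 target sequence downstream of FLuc, endogenous miR-21). Readout was firefly luciferase luminescence after lytic detection reagent.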
# Rango-impB inh: inhibitors of Rango-importin beta complex formation; Q14974; Rango CFP/YFP FRET sensor + importin beta, 45 min; Potency, µM (series often up to 92.2 µM), inactives show top-dose inhibition of complex formation; hit rate 0.031% among 340,000; AID 540263; active = rising FRET ratio curve, often small or poorly fitted; inconclusive = mostly compound fluorescence or quenching in the first reads; inactive = flat curves in all reads;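 also: potency is read from the fitted curve at half-maximal effect; 0% = DMSO wells and 100% = buffer wells lacking importin beta; nearly all actives have a fitted effect of over 15% in size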
# Target sequence (Q14974 whole entry, looked up): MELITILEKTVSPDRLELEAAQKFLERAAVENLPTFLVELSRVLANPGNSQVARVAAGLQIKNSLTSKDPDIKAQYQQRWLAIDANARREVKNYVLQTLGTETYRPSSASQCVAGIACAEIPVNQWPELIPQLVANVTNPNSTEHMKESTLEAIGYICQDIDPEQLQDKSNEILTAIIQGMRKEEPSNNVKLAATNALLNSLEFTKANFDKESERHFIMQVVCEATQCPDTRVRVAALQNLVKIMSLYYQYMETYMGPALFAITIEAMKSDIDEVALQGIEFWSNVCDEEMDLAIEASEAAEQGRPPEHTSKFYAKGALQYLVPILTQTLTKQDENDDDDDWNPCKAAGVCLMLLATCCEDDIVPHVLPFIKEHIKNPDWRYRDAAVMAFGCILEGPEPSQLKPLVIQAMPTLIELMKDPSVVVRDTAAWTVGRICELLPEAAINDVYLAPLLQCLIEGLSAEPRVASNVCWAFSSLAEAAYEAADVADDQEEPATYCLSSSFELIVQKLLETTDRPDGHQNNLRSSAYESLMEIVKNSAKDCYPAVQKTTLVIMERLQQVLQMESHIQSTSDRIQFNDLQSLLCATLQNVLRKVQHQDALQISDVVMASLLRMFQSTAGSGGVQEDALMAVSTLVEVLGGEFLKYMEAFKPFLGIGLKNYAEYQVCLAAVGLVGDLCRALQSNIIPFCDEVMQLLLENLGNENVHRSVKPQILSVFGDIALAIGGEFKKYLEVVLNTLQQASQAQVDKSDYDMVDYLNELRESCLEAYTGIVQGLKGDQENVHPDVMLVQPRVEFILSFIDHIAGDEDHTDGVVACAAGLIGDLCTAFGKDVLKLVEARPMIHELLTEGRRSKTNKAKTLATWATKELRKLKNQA
#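 FRET biosensor Rango (snurportin 1 IBB between N-terminal EYFP and C-terminal Cerulean), 50 nM in PBS/1 mM DTT/0.02% Tween-20/0.1% BSA, preincubated 5 min RT with compound; 0.125 microM importin beta added, 45 min RT, CFP/YFP FRET ratio read.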
# GLA inh pH 4.5: alpha-galactosidase A (human) inhibition, pH 4.5; 230,000 tested, under 10 active; P06280; activity change, negative = inhibition, % at 105 µM; AID 1467; purified enzyme, 4-MU-alpha-Gal fluorescence, pH 4.5; inconclusive = small, poorly fitted or top-dose-only inhibition, or a rising curve; inactive = flat fitted curve, though single readings scatter; no compound was filed as active;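 also: 0% = full activity with enzyme and -100% = basal without enzyme; dose as in the result columns while the protocol names 77 µM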
# Rango dissoc inh: inhibition of RanGTP-driven Rango-importin beta dissociation; O95149+P62826; Biochemical FRET Rango-importin beta, RanGTP-induced dissociation; Potency, µM (titrated, usually from 46.1 µM), for the others: at the highest dose activity change, negative = inhibition; hit rate 0.071% among 340,000; AID 540253; active means falling FRET ratio curve, often poorly fitted, with flat reads before Ran was added; inconclusive means other falling curves, or compound fluorescence or quenching; inactive means flat or rising ratio curve;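 also: potency is read from the fitted curve at half-maximal effect; % of control where 0% means no effect; nearly all actives have a fitted effect of over 45% in size; -100% = wells without RanGTP and RCC1; the record marks most hits as doubtful in a second field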
#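 Rango FRET biosensor (snurportin-1 IBB flanked by N-terminal EYFP and C-terminal CFP10) at 0.1 uM, with 0.25 uM importin beta in PBS, 1mM DTT, 0.02% Tween-20, 0.1% BSA. 0.6 uM Ran, 2mM GTP and 0.2 uM RCC1 were then added for 45 min at room temperature. Inhibition read as loss of FRET rise.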
# * marks the source's active call; other numbers are inactive results; ? = inconclusive; / = no result given. These rows are one share of the data, so the mix of outcomes need not match the whole.
miR-21 FLuc,Rango-impB inh,GLA inh pH 4.5,Rango dissoc inh,SMILES
2.8%,4.0%,0.0,12.6%,O=C(c1cccc(Cl)c1)N1CCN(c2ncnc3c2cnn3-c2ccccc2)CC1
-14.1%,-3.2%,7.6,8.8%,Cc1ccc([N+](=O)[O-])c(OCCCN2C(=O)NC(C)(C)C2=O)c1
-1.8%,-3.9%,-20.1,0.6%,Cc1cc(C)nc(Sc2ccc(C=O)cc2[N+](=O)[O-])n1
-14.7%,-4.2%,-6.7,-5.4%,CC(Oc1ccc2ccc(=O)oc2c1)C(=O)c1ccccc1 (stereo not given)
13.5%,0.1%,-12.9,11.0%,Cc1csc(NC(=O)c2ccc(OCC3CCCO3)cc2)n1 (stereo not given)
-2.7%,-0.5%,0.7,-0.1%,Cc1ccc(-c2nnn(CC(=O)N(Cc3ccccc3)C(C(=O)NC(C)(C)C)c3ccncc3)n2)o1 (stereo not given)
-21.5%,-0.2%,-1.6,-18.3%,COc1ccc(C2=CC(=O)CC(c3ccccc3)C2)cc1 (stereo not given)
-0.5%,0.9%,/,-10.1%,O=C(CCNS(=O)(=O)c1ccc(Br)cc1)NCc1ccc(Cl)cc1
/,-1.7%,/,5.2%,C/C(N)=C(/C#N)C(=O)COC(=O)C1CCN(S(=O)(=O)c2cccs2)CC1
-0.2%,/,0.7,/,COC(=O)c1cc(NC(=O)c2cccc(Cl)c2)c(=O)oc1/C=C/Nc1cc(C)cc(C)c1
-6.0%,6.2%,-5.3,21.8%,Cn1c(Cn2c(=O)sc3ccccc32)nnc1SCC(=O)N1CCCCCC1
-0.5%,0.1%,/,-5.2%,CC(C)c1cc(=O)[nH]c(N2CCN(Cc3ccc4c(c3)OCO4)CC2)n1
21.9%,2.8%,-0.9,2.1%,Cc1ccc(C(=O)O/N=C/c2c(N3CCOCC3)n(C)c3ccccc23)cc1
1.7%,8.8%,-1.4,-4.8%,O=C(N/N=C/c1ccc(Br)s1)c1ccncc1
-49.9%,-1.1%,3.9,3.6%,Cc1ccc2c(c1)NC(=O)c1cccnc1N2
-11.5%,/,-5.5,/,CS(=O)(=O)C1=NSC2=NC(=O)/C(=C\c3ccc(-c4ccccc4)o3)C(=N)N21
-3.4%,0.0%,/,0.2%,CC(=O)N1CCN(c2ccccc2NC(=O)c2cccs2)CC1
4.7%,1.5%,-4.7,27.2%,CN(C(=O)c1cccs1)c1ccc(OCC(=O)Nc2ccc(C(=O)O)cc2)cc1
7.3%,0.5%,12.8,-12.5%,CCC(C)(C)n1nnnc1CN1CCN(c2ccc(OC)cc2)CC1
-8.9%,-2.9%,0.6,10.7%,CC(C)c1nc(NCCN2CCOCC2)c(C#N)c2c1COC(C)(C)C2
-65.6%,-1.9%,-2.2,-9.0%,Cc1cccnc1NC(=S)NC(=O)/C=C/c1ccco1
/,-4.2%,/,9.8%,C=CC(=O)N1C/C(=C/c2ccc(Cl)cc2)C(=O)/C(=C\c2ccc(Cl)cc2)C1
0.1%,1.9%,4.3,0.1%,CC(Sc1cccc2cccc(C(=O)O)c12)C(=O)O (stereo not given)
-8.8%,0.1%,/,-10.1%,CC(C)(O)c1[nH]c2cc(C(F)(F)F)ccc2c1C(C)(C)O
/,-0.9%,/,0.9%,COc1ccccc1CNC(=O)COC(=O)c1cccc(-n2cnnn2)c1
/,-1.8%,/,19.3%,Cc1cc(C(=O)CCC(=O)N2CCN(c3ccccc3)CC2)c(C)s1
-3.8%,-1.0%,2.2,1.8%,Cc1ccc(S(=O)(=O)N2CCCCC2C(=O)N2CCN(C)CC2)cc1 (stereo not given)
0.3%,-1.3%,/,6.8%,CCN(CC)S(=O)(=O)c1ccc2c(c1)c(=O)c(C(=O)N1CCN(c3ccccn3)CC1)cn2C
0.8%,1.3%,4.6,12.7%,CCN(c1cccc(C)c1)S(=O)(=O)c1ccc2c(c1)CCN2C(C)=O
-18.5%,5.5%,-5.0,16.7%,CCOC(=O)c1ccc(N2CCCCC2)c(NS(=O)(=O)c2cccc(C(F)(F)F)c2)c1

# Look-ups from the entries so far:
# Value of `Cc1cc(C(=O)CCC(=O)N2CCN(c3ccccc3)CC2)c(C)s1` in Rango-impB inh: -1.8%
# Value of `Cc1cccnc1NC(=S)NC(=O)/C=C/c1ccco1` in GLA inh pH 4.5: -2.2
# Value of `COc1ccccc1CNC(=O)COC(=O)c1cccc(-n2cnnn2)c1` in Rango dissoc inh: 0.9%

# The list continues:
miR-21 FLuc,Rango-impB inh,GLA inh pH 4.5,Rango dissoc inh,SMILES
-6.3%,0.2%,-1.7,8.0%,O=C(O)CSc1nc2ccccc2n1C1CCCCC1
-1.2%,-1.6%,7.0,-0.5%,COc1cc(C)c(CNC2CCCCC2)cc1C
-48.1%,-1.6%,4.3,1.6%,Cc1cc(C(=O)N/N=C/c2ccc(O)c([N+](=O)[O-])c2)c(C)n1-c1ccc(F)cc1
-1.0%,1.3%,-1.6,2.3%,O=C(c1cnc2ccccn2c1=O)N1CCc2ccccc21
-9.5%,-0.5%,-8.9,13.8%,CCn1c(Sc2ccc(N)cc2Cl)nc2ccccc21
-2.2%,3.4%,?,-3.0%,COc1ccc(-c2cc(-c3ccccc3)c(C#N)c(S(C)(=O)=O)n2)cc1
/,-1.4%,/,-1.9%,Fc1cccc(CNc2ncnc3ccc(-c4ccc5c(c4)OCO5)cc23)c1
/,-2.1%,/,-2.7%,Cc1ccc(S(=O)(=O)Nc2ccc(-n3cnnn3)cc2)c(C)c1
-23.9%,-3.1%,/,0.1%,CCOC(=O)c1csc(CCNC(=O)c2oc3c(Cl)cc(C)cc3c2C)n1
1.0%,-2.3%,5.0,2.7%,CCCCNC(=O)C(NS(=O)(=O)c1cccc2nsnc12)c1ccccc1 (stereo not given)
-1.1%,0.4%,-3.7,-0.1%,O=C(NC1CCCC1)C(c1ccsc1)N(C(=O)Cc1cccs1)c1ccccc1 (stereo not given)
2.1%,-1.6%,5.2,?,COc1ccccc1OCC(=O)OCC(=O)NCCN1C(=O)CSC1=O
/,3.9%,/,-8.4%,COc1ccc(NC(=O)CN2C(=O)C(=O)N(C3CCCC3)C2=O)c(OC)c1
6.1%,0.2%,-5.9,0.9%,COc1ccc(C(=O)CSc2nnc(CNc3ccc(F)cc3)o2)cc1
4.0%,-2.5%,-3.7,-7.5%,COCCn1c(SCC(=O)Nc2cccc(C)c2)nnc1C(C)C
-25.2%,0.5%,-9.6,-6.3%,CCC(=O)N(Cc1ccco1)c1nc(-c2ccccc2)cs1
-2.9%,2.3%,-0.1,0.3%,OCCC1CN(Cc2cccs2)CCN1Cc1ccccc1 (stereo not given)
-0.1%,?,-0.5,-26.9%,O=C(O)COc1ccccc1/C=C1\SC(=S)N(c2cccnc2)C1=O
13.7%,3.5%,?,-10.9%,Nc1ccccc1Oc1c(F)c(F)c(Oc2ccccc2N)c(F)c1F
-3.5%,1.8%,/,-1.5%,COc1ccc(OC)c(C2c3[nH]c4ccccc4c3C[C@H]3C(=O)N(C4CC4)CC(=O)N23)c1 (stereo not given in full)

# Next section, starting with the last 2 of the part before.
miR-21 FLuc,Rango-impB inh,GLA inh pH 4.5,Rango dissoc inh,SMILES
13.7%,3.5%,?,-10.9%,Nc1ccccc1Oc1c(F)c(F)c(Oc2ccccc2N)c(F)c1F
-3.5%,1.8%,/,-1.5%,COc1ccc(OC)c(C2c3[nH]c4ccccc4c3C[C@H]3C(=O)N(C4CC4)CC(=O)N23)c1 (stereo not given in full)
/,-0.3%,/,15.2%,OC1Cc2ccccc2C1Nc1cccc(C(F)(F)F)c1 (stereo not given)
-6.5%,-2.5%,8.3,0.3%,CSCCC(NS(=O)(=O)c1ccc2c(c1)oc(=O)n2C)C(=O)NC1CCCCC1 (stereo not given)
-1.4%,0.3%,-7.9,-0.2%,CCc1ccc(OCCNC(=O)OCc2ccccc2)cc1
-12.5%,2.2%,7.7,6.0%,Cn1c(=O)cc(OCCCC(=O)Nc2ccccn2)c2ccccc21
4.3%,-0.1%,-6.4,-4.1%,CCCCNC(=O)CNC(=S)N(Cc1ccccc1)Cc1cccs1
-0.1%,3.2%,-0.8,-2.0%,N#Cc1c2n(c(=S)n(-c3ccc(F)cc3)c1=O)CCCCC2
0.7%,0.5%,-6.3,?,CCCCCCCCc1nnc(N)s1
3.8%,4.6%,/,2.0%,Cc1c(Cl)cccc1NC(=O)CSc1nncn1-c1cccnc1
4.7%,-0.2%,/,0.6%,O=C(N/N=C/c1cc(Cl)cc([N+](=O)[O-])c1O)c1ccc2c(c1)OCO2
-4.6%,-5.2%,5.6,4.6%,COc1ccc(OCCC(=O)OCC(=O)NC2CCCCCCC2)cc1
2.4%,-1.6%,/,-0.5%,Cc1c(C)c2ccc(OCC(=O)NCCCn3ccnc3)cc2oc1=O
/,-1.3%,/,7.5%,O=C(COc1ccccc1F)NNC(=O)c1ccc(F)c(S(=O)(=O)N2CCOCC2)c1
/,4.9%,/,-7.1%,N#Cc1c(NC(=O)COC(=O)c2nccnc2N)sc2c1CCCC2
-11.3%,0.0%,-2.1,6.3%,Cc1ccc(NC(=O)C2CCCN2C(=O)NCc2ccccc2)cc1 (stereo not given)
-22.4%,-0.7%,-9.2,16.6%,COc1ccc(/C=N/Nc2ncccc2[N+](=O)[O-])c(OC)c1
/,2.7%,/,-5.3%,Cc1noc(C)c1COc1ccc(C(=O)N2CCN(c3ccccn3)CC2)cc1
-4.4%,0.8%,/,16.2%,Cc1ccc(S(=O)(=O)NCc2ccccc2C)cc1
-3.0%,0.8%,-2.4,-7.8%,Cc1cc(C)n2nc(CC(=O)NCc3ccc(F)cc3)nc2n1
-2.9%,-1.2%,-5.0,-9.6%,CCN(CC)CCCNC(=O)C1c2cc(OC)c(OC)cc2C(=O)N(C)C1c1cccs1 (stereo not given)
-39.9%,-2.3%,-3.0,1.9%,c1nc(Nc2ccc(N3CCOCC3)cc2)c2ccsc2n1
-2.3%,?,1.1,?,CCOC(=O)C1(C)NC(c2ccc(N(C)C)cc2)C2C(=O)N(CC)C(=O)C21 (stereo not given)
-4.9%,2.4%,3.8,0.5%,O=C(c1ccccc1)N1CCCC(c2nc3c(nnn3Cc3ccccc3)c(=O)[nH]2)C1 (stereo not given)
-3.3%,?,-0.5,-19.2%,O=C(Nc1ccc(F)cc1)Nc1sccc1-c1nc2ccccc2s1
-4.9%,-0.5%,0.9,-6.0%,S=C(Nc1cccc(Cl)c1)N(CCCN1CCCC1)Cc1cccn1Cc1ccc(Cl)cc1
/,-1.3%,/,-10.1%,COc1ccc(Cl)cc1NC(=O)CN(C)CC(=O)Nc1cccc(S(=O)(=O)N2CCCC2)c1
-0.4%,-0.2%,3.7,-14.4%,O=C(NCCC1=CCCCC1)c1cc(-c2ccccn2)nc2ccccc12
-7.3%,3.5%,4.8,1.0%,CCCCNC(=O)c1ccc2c(OCC)n(CCCC)nc2c1
-4.5%,/,?,/,CCc1cc2c(nc1CC)CCN(CC/C(C)=N/O[C@@H](C)c1cc(-c3c(C)cc(C)cc3C)no1)C2
0.3%,-0.3%,4.3,-14.5%,CC12CCC(=O)N1C(C(=O)OCC(=O)Nc1ccc(S(N)(=O)=O)cc1)CS2 (stereo not given)
4.3%,3.7%,-2.9,18.5%,O=S(=O)(Nc1cccc(-c2cn3cccnc3n2)c1)c1ccccc1
-28.9%,-4.3%,4.7,0.2%,CCc1ccc(C(=O)COC(=O)[C@@H](NC(N)=O)[C@@H](C)CC)cc1
-0.8%,1.4%,5.1,-9.5%,O=C(Cn1nc(-c2ccc(F)cc2)ccc1=O)Nc1ccc(C(=O)NC2CC2)cc1
0.8%,0.8%,/,17.0%,CC(=O)N1c2ccc(S(=O)(=O)N3CCC(C(=O)Nc4cc(C)cc(C)c4)CC3)cc2CC1C (stereo not given)
-49.2%,5.7%,-3.4,0.8%,Brc1ccc(-c2nc(-c3ccncc3)no2)o1
-24.8%,1.4%,-6.0,23.4%,Cn1cc(C(=O)C(=O)N2CCN(c3ccccc3)CC2)c2ccccc21

# Assay outcomes deposited in PubChem BioAssay by National Center for Advancing Translational Sciences (NCATS).
